MenB inh: M. tuberculosis MenB inhibitors, primary screen, biochemical, absorbance. 1,4-dihydroxy-2-naphthoyl-CoA synthase (Mycobacterium tuberculosis (strain ATCC 25618 / …. MenB enzyme assay, absorbance read-out; some hits fall short of the stated cut. inhibition, %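 (about 12 µg/mL by stock and volumes)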. 100,000 tested, 0.43% active. AID 540299, 2011;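 active = mean of two replicates above 30%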;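 also: 0% = no compound and 100% = wells with inactive enzyme; the first replicate is given; strong numbers were not always called active; inactives centre near -10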
Target sequence (P9WNP5 whole entry, looked up): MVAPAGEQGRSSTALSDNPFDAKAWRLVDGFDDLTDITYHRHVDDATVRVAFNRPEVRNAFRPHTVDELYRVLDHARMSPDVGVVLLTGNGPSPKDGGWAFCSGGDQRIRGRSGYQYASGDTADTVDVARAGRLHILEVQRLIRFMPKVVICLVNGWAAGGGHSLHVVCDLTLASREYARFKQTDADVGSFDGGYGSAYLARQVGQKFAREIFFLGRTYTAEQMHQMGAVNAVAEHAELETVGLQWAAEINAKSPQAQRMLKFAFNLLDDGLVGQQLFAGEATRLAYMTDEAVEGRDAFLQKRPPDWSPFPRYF
Mtb MbtI inh: MbtI salicylate synthase inhibitors, primary screen, biochemical, fluorescence intensity | purified MbtI enzyme, fluorescence intensity read-out | inhibition, %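 (about 17 µg/mL by stock and volumes)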 | 100,000 tested, 0.89% active | P9WFX0;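 active = above 50% in both replicates, above 80% if mildly self-fluorescent; inactive = the rest, strongly fluorescent compounds included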;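 also: 0% = mean of negative and 100% = mean of positive controls; one replicate is shown; some compounds called inactive have numbers as strong as hits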
Polio RdRp inh: poliovirus RdRp elongation inhibitors, primary screen, biochemical, fluorescence polarization, total intensity; poliovirus polymerase elongation; active compounds read low; % elongation, % (compound at 16.7 µg/mL); 150,000 tested, 0.66% active; AID 588519, 2011; in the data active = % elongation below about 90%; also: some results filed as inactive read as strong as hits
Target sequence (P03300 1749-2209 limits assumed): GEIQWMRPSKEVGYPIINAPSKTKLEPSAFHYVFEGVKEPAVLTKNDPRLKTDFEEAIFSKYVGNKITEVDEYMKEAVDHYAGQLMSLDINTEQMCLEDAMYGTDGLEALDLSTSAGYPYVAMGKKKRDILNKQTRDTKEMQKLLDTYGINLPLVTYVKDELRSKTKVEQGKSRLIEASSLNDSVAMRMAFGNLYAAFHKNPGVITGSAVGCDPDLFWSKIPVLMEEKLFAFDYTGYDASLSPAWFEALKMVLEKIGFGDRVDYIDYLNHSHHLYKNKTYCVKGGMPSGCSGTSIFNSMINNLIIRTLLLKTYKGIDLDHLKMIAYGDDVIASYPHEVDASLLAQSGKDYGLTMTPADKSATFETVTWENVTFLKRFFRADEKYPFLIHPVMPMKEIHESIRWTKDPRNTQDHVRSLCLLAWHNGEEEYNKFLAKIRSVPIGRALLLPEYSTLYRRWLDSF
Polio RdRp inh intensity: further read-out of Polio RdRp inh, marked with its call; % elongation; measured here: total intensity read-out; formula for this scale not given here;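 total fluorescence in place of polarization; lower means less elongation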
The depositor's hits bear a star; i = inactive; x = not tested or not shown. Not a hit list, and some 1.8% of all compounds hit somewhere here.

SMILES	MenB inh	Mtb MbtI inh	Polio RdRp inh	Polio RdRp inh intensity
COc1ccc(/C=C2\CC/C(=C\c3ccc(OC)c(Cn4cccn4)c3)C2=O)cc1Cn1cccn1	-29	0	104	107
COCCNC(=S)N1CCC(C(=O)c2ccc(F)cc2)CC1	37*	-2	103	102
CC(C)NC(=O)CN	13	-3	x	x
C=CCn1c(SCC(C)C)nc2sc3c(c2c1=O)CC(C)(C)OC3	-43	-8	105	109
COc1ccc(OCC(=O)NCc2ccco2)cc1	2	18	101	98
CC(C)(C)SCc1cccc(C(=O)N2CCN(c3ncccc3C(F)(F)F)CC2)c1	-34	-4	102	97
N=c1nc(SCCC(=O)O)ss1	-8	8	103	102
COc1cc(/C=C/C(=O)C(C#N)c2nc3ccccc3n2C)cc(OC)c1OC (stereo not drawn)	0	-12	103	109
CCc1ccc(C2C(C#N)=C(N)Oc3cc(C)oc(=O)c32)cc1 (stereo not drawn)	-52	-1	99	103
CC1(C)Cc2c(sc(N3CCCC3=O)c2C#N)C(C)(C)N1	6	-8	106	108
O=C(O)CCc1ccsc1	3	15	100	96
CSc1scc2c1C(=O)/C(=C/N(C)C)CC2	-25	21	63*	84*
Cc1occc1C(=O)N/N=C/c1sc(N2CCOCC2)nc1-c1ccccc1	-56	17	111	112
N#CCc1c(C#N)c(N)nc(N2CCCC2)c1C#N	-7	-19	103	114
CCCn1c(=O)c2c(C(F)(F)F)cc(-c3ccco3)nc2n(CCC)c1=O	-24	0	98	100
CCCc1cc(=O)[nH]c(SCC(=O)NCC23CC4CC(CC(C4)C2)C3)n1	-12	x	103	100
CC(C(=O)OCC(=O)c1ccc(F)cc1)N1C(=O)C2C3C=CC(C3)C2C1=O (stereo not drawn)	9	11	104	104
CCc1cccc(NC(=O)c2ccccn2)c1	11	2	101	99
COc1ccc(OC(=O)OCC(C)C)cc1	-5	-3	100	102
CC(C)(C)C(=O)CSc1nc2c(cc1C#N)N1CCC2CC1	-7	-44	99	101
CCN(CC)CCSc1nnc2c3cc(C)ccc3n(C)c2n1	-26	-3	99	100
CC1(c2ccc(Cl)cc2)CC(C)(C)N(C(=O)c2cccnc2)c2ccccc21 (stereo not drawn)	-12	-8	99	101
O=C1CC(c2ccccc2)n2nc(NS(=O)(=O)c3ccccc3)nc2N1 (stereo not drawn)	-16	-160	103	102
CNCC(=O)Nc1ccccc1C(F)(F)F	4	-6	103	106
COC(=O)Sc1nnc(-c2ccc(C)cc2)o1	10	-3	100	102
COC(=O)C1CN(C(=O)c2ccccc2Cl)c2ccccc2O1 (stereo not drawn)	7	8	101	104
CCCOC(=O)CC1Sc2ccc(C(F)(F)F)cc2NC1=O (stereo not drawn)	-78	-9	107	100
O=C(CCn1c(=O)oc2ccccc21)NC1CCCCC1	-12	-4	99	101
Nn1cnnc1SC(CNS(=O)(=O)c1ccc(Cl)cc1)c1ccccc1 (stereo not drawn)	-7	-3	100	108
N#Cc1ccc(/C=C2/N=C(SCC(=O)N3CCCC3)N(C3CCCCCC3)C2=O)cc1	-11	-6	96	100
COc1ccc(Cn2c(O)c(/C=N/Nc3nc(C)cc(C)n3)c3ccccc3c2=O)cc1	-34	-14	137	152
CCN1C(=O)C(C(=O)N(Cc2ccccc2)Cc2ccccc2)C2CC1(C)Oc1ccccc12 (stereo not drawn)	-17	-12	104	108
Cc1[nH]nc(NC2=CC(=O)CC(C)(C)C2)c1-c1ccc(Cl)cc1	12	-14	100	103
CC1CCC(N(C)c2nc(C(F)(F)F)nc3ccccc23)CC1 (stereo not drawn)	-16	-6	104	108
O=C1CCN(NC(=O)c2cccnc2)C(=O)N1	-12	1	100	104
CCOC(=O)C1CCN(C(=O)C(C(=O)c2ccccc2)n2ccccc2=O)CC1 (stereo not drawn)	-2	x	108	110
COC(=O)CCCCC1SCC(NC(=O)OC)C1NC(=O)OC (stereo not drawn)	-36	0	104	99
CC1(C)CC(NC(=S)Nc2ccc(S(=O)(=O)N3CCOCC3)cc2)CC(C)(C)N1	12	3	100	101
CCC(Sc1nc2ccncc2[nH]1)C(=O)N(Cc1ccccc1)C(C)C (stereo not drawn)	8	3	100	96
N#C/C(=C(/O)Cn1cc(S(=O)(=O)N2CCCC2)ccc1=O)c1nc2ccccc2[nH]1	-28	1	114	129

2 of the compounds above, with each value named:
Structure: COC(=O)C1CN(C(=O)c2ccccc2Cl)c2ccccc2O1 (stereo not drawn)
  MenB inh: 7 | Mtb MbtI inh: 8 | Polio RdRp inh: 101 | Polio RdRp inh intensity: 104
Structure: COC(=O)CCCCC1SCC(NC(=O)OC)C1NC(=O)OC (stereo not drawn)
  MenB inh: -36 | Mtb MbtI inh: 0 | Polio RdRp inh: 104 | Polio RdRp inh intensity: 99

Reformatted with each value named: entries from further up.
Structure: O=C1CC(c2ccccc2)n2nc(NS(=O)(=O)c3ccccc3)nc2N1 (stereo not drawn)
- MenB inh: -16
- Mtb MbtI inh: -160
- Polio RdRp inh: 103
- Polio RdRp inh intensity: 102
Structure: CNCC(=O)Nc1ccccc1C(F)(F)F
- MenB inh: 4
- Mtb MbtI inh: -6
- Polio RdRp inh: 103
- Polio RdRp inh intensity: 106
Structure: COC(=O)Sc1nnc(-c2ccc(C)cc2)o1
- MenB inh: 10
- Mtb MbtI inh: -3
- Polio RdRp inh: 100
- Polio RdRp inh intensity: 102
Structure: COC(=O)C1CN(C(=O)c2ccccc2Cl)c2ccccc2O1 (stereo not drawn)
- MenB inh: 7
- Mtb MbtI inh: 8
- Polio RdRp inh: 101
- Polio RdRp inh intensity: 104

(more compounds)
SMILES	MenB inh	Mtb MbtI inh	Polio RdRp inh	Polio RdRp inh intensity
CN1CCc2nc(NC3=NCCCCC3)sc2C1	11	4	105	103
CC(NC(=O)C1CCCN(C(=O)N(C)C)C1)c1ccccc1 (stereo not drawn)	-29	-23	102	101
Cc1ccc2oc(=O)n(CC(=O)OCCC(C)C)c2c1	-18	-11	104	103
CCCCNC(=O)C1c2cc(OC)c(OC)cc2C(=O)N(C)C1c1ccc(OC)cc1 (stereo not drawn)	-22	6	100	103
CN(C)c1nc(OCC(=O)NC(C)(C)C)nc(N(C)C)n1	-31	-3	99	101
Cc1cccc(NC(=O)NCCN2CCOCC2)c1	-1	x	100	102
CCCn1c(N)c(C(=O)CN2CCc3ccccc3C2)c(=O)[nH]c1=O	-2	26	x	x
Cc1nc2ccc(C(=O)NCc3ccccc3CN3CCCC3)cc2nc1C	5	22	101	100
O=C(NCC1CCCO1)C1CCCN1C(=O)Nc1ccc(Cl)cc1 (stereo not drawn)	-4	-7	102	100
COc1ccc(C(O)CCC(=O)O)cc1 (stereo not drawn)	-17	-10	103	101
Cc1cc(C)c(OCC(=O)Nc2cc(-c3nc4ncccc4o3)ccc2C)c(Cl)c1	-27	46	104	105
S=C1CCCN1c1ccccc1	19	16	102	98
O=c1[nH][nH]c(=S)n1C1Cc2ccccc2C1	-1	67*	100	103
CCCCSC1=C(C#N)C(=O)NC(c2ccc(OC)cc2)S1 (stereo not drawn)	-1	2	102	101
Cc1ccc(-n2ncc(C(=O)NCCCN3CCCCC3)c2-n2cccc2)cc1	7	-7	101	103
Cc1ccccc1Nc1nc(NCCN(CC(C)C)CC(C)C)nc2c1cnn2C	-21	4	103	111
O=C(Cc1ccccc1)NCC(=O)N1CCN(c2ccccc2)CC1	-10	-14	103	103
CC(C)c1ccc(-c2nnn(CC(=O)OC3CCCCC3)n2)cc1	0	-6	101	101
O=C(COC(=O)c1ccccc1-n1cnnn1)c1ccccc1	-1	-4	107	108
S=C(N=P(N1CCOCC1)(N1CCOCC1)C12CC3CC(CC(C3)C1)C2)N1CCCC1	-25	-12	102	91
COc1cccc(C(=O)NC2CC3CCCC(C2)N3CC(=O)Nc2ccc(N(C)C)cc2)c1 (stereo not drawn)	2	-10	103	100
O=C(Cc1ccc(S(=O)(=O)N2CCCC2)s1)Nc1ccc(-c2nnc3n2CCCCC3)cc1	-32	-17	108	113
CN1CCC(N(C)C(=O)c2nn(-c3ccccc3)c(=O)c3ccccc23)CC1	-28	4	100	99
O=C(CCCc1ccccc1)NCC1CCCO1 (stereo not drawn)	-13	-6	103	102
CC(C)C(OC(=O)c1cccs1)C(=O)NC1CCCC1 (stereo not drawn)	-40	-7	103	99
O=C1CCCN1CO	x	-3	103	103
CN(CCc1ccccn1)c1ncnc2c1oc1ccccc12	-11	-55	100	103
Oc1ccc(Cl)cc1N=Cc1ccc(-c2ccc(Br)cc2)o1	-11	x	100	96
COc1ccc2ccc(OCC(=O)NCC(F)(F)F)cc2c1	-17	-15	102	107
CCn1c(COC(=O)c2ccccc2)nc2cc(S(=O)(=O)N(C)C)ccc21	-14	-10	102	100
S=C1COC(c2ccc(Br)cc2)N1c1ccccc1 (stereo not drawn)	-3	x	106	104
CCC(=O)N(c1nnc(SCC(=O)c2cc(C)n(C)c2C)s1)C1CC1	9	0	98	99
CC(C)c1ccc(-c2noc(C3CCCN(S(=O)(=O)c4ccccc4)C3)n2)cc1 (stereo not drawn)	-18	-5	106	102
Cc1cc(NC(=O)c2ccc(C)s2)n(-c2nc3ccccc3n2Cc2ccccc2F)n1	-14	3	102	104
O=C(COC(=O)Cc1ccc(F)cc1)NCc1ccco1	x	-9	101	103
CCn1cc(C=C2C(=O)OC(C)(C(C)(C)C)OC2=O)c2ccccc21 (stereo not drawn)	-83	-2	102	100
C/C(CSC(=O)c1c(-c2c(F)cccc2Cl)noc1C)=N\O	-18	4	101	104
COc1cccc(-n2cc(C(=O)NCCc3ccc(S(N)(=O)=O)cc3)c3ccccc3c2=O)c1	-1	-14	101	105
COc1ccc(C2=NOC(C(=O)NCC(C)C)C2)cc1 (stereo not drawn)	-4	-3	100	104
Cc1cccc(C(CC(=O)Nc2nc(C)cs2)n2cccc2)c1 (stereo not drawn)	-10	-13	101	103

Full records, looked up by structure. Screens in order: MenB inh, Mtb MbtI inh, Polio RdRp inh, Polio RdRp inh intensity
COc1ccc(C2=NOC(C(=O)NCC(C)C)C2)cc1 (stereo not drawn) is entered as -4, -3, 100, 104
O=C1CCCN1CO is entered as x, -3, 103, 103
CN(CCc1ccccn1)c1ncnc2c1oc1ccccc12 is entered as -11, -55, 100, 103

The list goes on.
SMILES	MenB inh	Mtb MbtI inh	Polio RdRp inh	Polio RdRp inh intensity
CCCc1c(C#N)c(N)nc(SCCCN2CCN(c3cccc(Cl)c3)CC2)c1C#N	-8	x	102	109
Cn1ncc2c(N(CCO)Cc3ccccc3)ncnc21	-18	-10	100	101
CCC(=O)O[C@H]1[C@H](O[C@@H]2[C@@H](C)[C@H](O[C@H]3C[C@@](C)(OC)[C@@H](O)[C@H](C)O3)[C@@H](C)C(=O)O[C@H](CC)[C@@](C)(O)[C@H](O)[C@@H](C)C(=O)[C@H](C)C[C@@]2(C)O)O[C@H](C)C[C@@H]1N(C)C	-6	-8	103	100
CN1C(=O)c2ccccc2C(C(=O)O)C1c1cccs1 (stereo not drawn)	14	4	100	101
O=C(C1CCN(Cc2cnn(-c3ccccc3)c2-n2cccc2)CC1)N1CCC2(CC1)OCCO2	8	-6	100	102
CCSc1nnc(C)c2ccccc12	-16	x	96	101
Cc1sc2nc(SCC(=O)c3ccc(O)cc3O)[nH]c(=O)c2c1C	13	88*	76*	80*
CC(CCc1ccccc1)NC(=O)CSc1ccccc1Cl (stereo not drawn)	x	8	101	102
COCC(C)NC(=O)c1ccccc1NS(C)(=O)=O (stereo not drawn)	3	i	100	102
COc1ccc(/C=N/n2c(=O)c3c(ncn3/N=C/c3ccc(OC)cc3)n(C)c2=O)cc1	-9	2	101	101
Cc1[nH]c2ccc(-c3nnc(SCCC#N)n3C)cc2c1C	-13	26	103	105
O=C(NCc1ccccc1)c1cnn(-c2ccccc2)c1-n1cccc1	6	-7	99	99
CCOc1ccc(Nc2nc(Nc3ccc(OCC)cc3)nc(SC3=NCCS3)n2)cc1	-25	-6	101	104
CCNCC(O)c1cccc(OC(=O)c2ccccc2C)c1 (stereo not drawn)	-11	-4	101	97
COc1ccc2c(C)c(CC(=O)NCc3ccccc3)c(=O)oc2c1	0	120	105	102
CC(=O)Nc1nc(CN2CCN(Cc3nc4ccccc4s3)CC2)cs1	-11	2	104	104
C=CCn1c(=O)c2ccccc2n2c(SC(C)c3nnc(-c4cccs4)o3)nnc12 (stereo not drawn)	-3	4	104	99
CC(=O)N1CCN(C(=O)/C(=C/c2ccc(F)cc2)c2ccsc2)CC1	x	1	102	100
Cc1ccc(Cn2nnc3c(=O)n(CC(N)=O)cnc32)cc1	-12	8	102	97
O=C(O)c1csc2c1CCCCC2	-4	10	102	107
Cc1ccc(C)c(N2CCN(C(=O)C3CCN(c4ccc(N5CCOCC5)nn4)CC3)CC2)c1	-9	5	105	98
CC(N)c1ccc2c(c1)OCCO2 (stereo not drawn)	-15	-3	102	102
CC(=O)Nc1ccc(C(=O)CSc2nnc(C)o2)cc1	-5	7	100	101
CC(C)(C)c1cc(O)c2oc(=O)c(-c3nc(-c4ccccc4F)no3)cc2c1	-39	1	103	107
CC1CCN(C(=O)c2ccc3c(c2)N(C)CCS3)CC1	6	29	99	102
Nc1nc(C(F)(F)F)nn1C(=O)c1ccc(Br)cc1	-21	1	98	105
Cc1noc(C)c1S(=O)(=O)N1CCCC1c1ccc2c(c1)OCCCO2 (stereo not drawn)	-32	24	99	101
COC(=O)C1(C(F)(F)F)N=C2C=CC=CN2C(c2ccco2)=N1 (stereo not drawn)	-14	1	101	104
CCCNC(=O)Nc1ccccc1N1CCCCC1	10	-9	97	101
C=CCNc1nc2ccccn2c(=O)c1/C=C1\SC(=S)N(CCOC)C1=O	-27	8	103	179
